Screening data deposited in PubChem by National Center for Advancing Translational Sciences (NCATS).
SmPrx2 inh = Schistosoma mansoni Prx2 inhibition; S. mansoni Prx2 activity coupled to TGR/GSH (TGR is thioredoxin glutathione reductase), NADPH fluorescence loss, qHTS; some inactives read as strong as hits; Potency, µM; 65,000 tested, 0.07% active; AID 448; active means full or partial inhibition curve with a strong effect at the top dose; inconclusive means weaker partial or single-point curve; inactive means no accepted curve; also: series up to 57 µM; many of its hits are not listed in these tables
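Coupled assay in which S. mansoni TGR passes NADPH reducing equivalents via glutathione to Prx2, which reduces H2O2. Compounds were preincubated 15 min at room temperature with 25 nM TGR/50 nM Prx2 mix. Kinetic NADPH fluorescence loss (ex 365/em 450 nm) was monitored.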
Anthrax LT inh = blocks cellular internalization of anthrax lethal toxin. Cells, anthrax lethal toxin internalization, FRET ratio (460/530). Potency, µM (doses to about 40 µM), without a hit: top-dose activity change, negative = inhibition, most hits filed as inhibitors. 70,000 tested, 0.67% active; active = well fitted falling ratio curve with the 530 nm signal flat; inconclusive = other ratio curves, or a change in one channel alone; inactive = flat curves in the ratio and both channels; the % refers to the ratio; also: % is scaled to controls: 0 for no effect and ±100 for the full control effect; nearly all actives have a fitted effect of over 50% in size; tested in ME-180 cells; beta-lactamase reporter
Starred values were filed as active, the others as inactive; ? = inconclusive; · = not tested or not shown; [ ] = remark or other dose. Potency is read from the fitted curve at half-maximal effect. These rows are one share of the data; the hit share may differ from the screen's.

SMILES	SmPrx2 inh	Anthrax LT inh
O=C1CC(N2CCN(c3cccc(C(F)(F)F)c3)CC2)C(=O)N1c1ccccc1 (centres undefined)	·	-7.0%
O=C(C1CC1)N1CCc2cc(S(=O)(=O)NCC3COc4ccccc4O3)ccc21 (centres undefined)	>57	-0.5%
O=C(NCc1ccc2c(c1)OCO2)c1c(F)c(F)c(F)c(F)c1F	>57	?
COC(=O)C/C=C\[C@@H](C)[C@@H](/C=N\O[C@@H](C)c1cn([C@H](CO)Cc2ccccc2)nn1)OC	·	1.1%[8 µM]
O=C(NCCc1ccccc1)c1ccc(Br)o1	·	?
CCc1cc2c(nc1CC)CCN(CC/C(C)=N/OC)C2	·	-3.0%[8 µM]
COc1cccc(NC(=O)c2ccncc2)c1	·	3.6%
Cc1cc(C(=O)OCC(=O)N2CC(C)CC(C)C2)c(C)o1 (centres undefined)	>57	5.5%
COc1ccccc1CN1C(=O)c2ccncc2C1=O	>57	?
CCOC(=O)Cc1csc(NC(=O)CN(C)S(=O)(=O)c2ccc3c(c2)CCC(=O)N3)n1	>57	-10.4%
O=C(O)c1ccc(SSc2ccc(C(=O)O)cn2)nc1	>57	?
O=C(Nc1ccc(F)cc1)c1cc(S(=O)(=O)N2CCCCC2)cs1	>57	-12.1%
CCCCC/C=C/C=C/C=O	·	?
COc1cccc2cc(C(=O)N(C)C3CCN(C)CC3)c(=O)oc12	>57	-7.6%
COCCOC(=O)C1=C(N)OC2=C(C(=O)CCC2)C1c1cccnc1 (centres undefined)	>57	2.3%
O=C(Cn1nnc(-c2ccc(Cl)cc2)n1)NC1CCN(Cc2ccccc2)CC1	>57	-21.6%
Cc1ccc(NC(=O)CSCC(=O)O)c(C)c1	>57	-6.1%
COCCN1C(=O)c2ccccc2C(C(=O)N2CCN(c3ccccn3)CC2)C1c1ccc(F)cc1 (centres undefined)	>57	10.4%
CCn1c(SCC(=O)c2ccccc2)nc2c(c1=O)SC(C)C2 (centres undefined)	>57	0.4%
Cc1cc(NC(=O)Cc2cccs2)nn1CC(=O)NCc1ccco1	>57	-7.9%

Two entries from above, as labelled records:
Molecule: CCCCC/C=C/C=C/C=O
  SmPrx2 inh = ·
  Anthrax LT inh = ?
Molecule: Cc1cc(C(=O)OCC(=O)N2CC(C)CC(C)C2)c(C)o1 (centres undefined)
  SmPrx2 inh = >57
  Anthrax LT inh = 5.5%

Continuation:
SMILES	SmPrx2 inh	Anthrax LT inh
COc1ccc(C)cc1S(=O)(=O)N(C)CC(N)=O	>57	9.4%
COc1cc(C)c(S(=O)(=O)NC2CC(C)(C)NC(C)(C)C2)cc1C	>57	-8.9%
CC(=O)Nc1nc(C)nc(-c2ccccc2)c1C(C)=O	>57	2.4%
COc1ccccc1N1CCN(C(=O)c2cnn3cccnc23)CC1	>57	3.9%
COc1cccc(OCCSc2nnc3sc4ccccc4n23)c1	>57	2.0%
COCCn1c(C)cc(C(=O)CN2C(=O)NC3(CCCCCCC3)C2=O)c1C	>57	5.0%
CCOC(=O)c1sc2c(c1C)C(c1cccs1)C1=C(CCCC1=O)N2 (centres undefined)	>57	?
COc1ccc(N2CCN(S(=O)(=O)c3ccc(C(=O)NC4CCCC4)cc3)CC2)cc1	>57	1.8%
CC1CCCC(C)N1CCCNC(=O)c1cc2c(=O)n(C)c3ccccc3c2n1C (centres undefined)	·	3.98µM*
CCCC(=O)NCCSC	·	-6.8%
Cc1ccc2nc(N3CCN(C)CC3)[nH]c2c1	>57	?
CN(C)C(=O)c1ccc(-c2cncnc2-n2ccnc2)cc1	>57	-3.6%
COc1cccc(CNC(=O)CCCNS(=O)(=O)c2cccs2)c1	>57	-11.3%
COCCNC(=O)COc1cc(=O)n(C)c2ccccc12	>57	2.7%
Cc1cc(C)nc(N2CCCC(C(=O)NC3CCCC3)C2)n1 (centres undefined)	>57	-14.5%
CCOC(=O)c1c(C)[nH]c(NC(=O)N2CCOCC2)c1C	>57	-4.0%
COC(=O)Cc1c(C)c2ccc(OC(=O)c3ccco3)cc2oc1=O	·	?
O=C(NCCC1=CCCCC1)c1ccc(Br)o1	>57	·
O=C(Nc1ccc(O)cc1)c1cc2n(n1)C(C(F)(F)F)CC(c1ccco1)N2 (centres undefined)	>57	-25.8%
CCNS(=O)(=O)c1ccc(NC(=O)Nc2cccc(OC)c2)cc1	>57	-9.5%
Cc1cc2ncn(CC(=O)O)c2cc1C	>57	-4.0%[8 µM]
Clc1cc(Cl)c2nc(N3CCCC3)sc2c1	>57	-25.8%
CCNCCC1(CC)C(=O)NC(=O)NC1=O	>57	4.8%[8 µM]
CC1Cn2c(nc3c2c(=O)[nH]c(=O)n3C)O1 (centres undefined)	>57	8.9%
Cc1nc2nc[nH]n2c(=O)c1CCC(C)C	>57	-4.8%
NCC(=O)Nc1ccc(Cl)cc1C(=O)c1ccc[nH]1	>57	2.8%[8 µM]
CN(C)C(=O)CN1C(=O)C2CC=C(Cl)CC2C1=O (centres undefined)	>57	1.0%
COC(=O)CN(C#N)c1nc(SC)nc(N(C)C)n1	>57	-10.8%
C[C@@]12CC[C@H]3[C@@H](CCC4=C(O)C(=O)CC[C@]43C)[C@H]1CCC2=O	>57	-1.6%
O=c1[nH]c(-c2cccnc2)nc2ccccc12	>57	-0.2%
NCCCNCCSP(=O)(O)O	>57	-1.7%
O=C(CN1CCN(C2CCCCC2)CC1)NCCC1=CCCCC1	>57	-14.2%
Cc1nn(Cc2ccccc2)c2sc(C(=O)N3CCN(Cc4ccc5c(c4)OCO5)CC3)cc12	>57	?
CCOC(=O)N1CCN(C(=O)C2CCN(C(=O)c3cc4sccc4n3CC)CC2)CC1	>57	-0.5%
CC(C)(C)N=C1NC(=NC(C)(C)C)c2ccccc21	>57	?
O=C(NCc1ccc(Cl)cc1)C1CCCN(S(=O)(=O)c2cnc[nH]2)C1 (centres undefined)	>57	-14.1%
COc1ccc(N2Cc3cccc(C(=O)O)c3C2=O)cc1	>57	9.7%
CN(C)CCNC(=O)c1ccc(Cl)s1	>57	3.9%
O=C(CC1(O)C(=O)Nc2ccccc21)c1ccc2c(c1)OCO2 (centres undefined)	>57	24.4%
COc1cccc(Cn2c(=O)c(-c3cn(C)c4ccccc34)nc3cnc(OC)nc32)c1	>57	3.4%
CCC(=O)N1CCc2cc(S(=O)(=O)NC(C(=O)NCc3ccc(C)cc3)C(C)C)ccc21 (centres undefined)	>57	-1.1%
CCCC(C(=O)NC1CCCC1)N(CCCN1CCOCC1)C(=O)c1snc(C(N)=O)c1N (centres undefined)	>57	-6.3%
COc1ccc2nc(NC(=O)C3CCN(S(=O)(=O)c4cnc[nH]4)CC3)sc2c1	>57	8.9%
COc1cc(-c2nc(S(=O)(=O)c3ccc(Cl)cc3)c(N3CCOCC3)o2)cc(OC)c1OC	>57	22.6%
CCN(C(=O)CCc1nc(-c2ccc(OC)cc2)no1)c1cc(OC)ccc1OC	>57	2.3%
Cc1c(C(O)CN2CCN(Cc3ccc4c(c3)OCO4)CC2)c2ccccc2n1C (centres undefined)	>57	?
Cc1ccc(CCN2CC(C(=O)NCCCN3CCOCC3)CC2=O)cc1 (centres undefined)	>57	?
CCOc1ccccc1C(=O)N1CCC(n2nnc3cc(C)ccc32)CC1	>57	-20.3%
CCCC(=O)Nc1nc(-c2ccc3c(c2)OCCO3)cs1	>57	4.9%
CCn1ncc(C2=NOC(C(=O)Nc3c(C)n(C)n(-c4ccccc4)c3=O)C2)c1C (centres undefined)	>57	-2.7%
COc1ccccc1N1C(=O)CC(Sc2ncccc2C(=O)O)C1=O (centres undefined)	>57	·
CC(C)OC(=O)CSc1nc(N)c(C#N)c(-c2cccs2)c1C#N	·	8.5%
O=C(CN(C1CC1)S(=O)(=O)c1ccc(S(=O)(=O)NC2CCCCC2)cc1)Nc1ccccc1	>57	10µM*
COc1ccc(NC(=O)CCN2CCCCC2)cc1	>57	-17.0%
O=C(COc1cccc(NC(=O)c2ccco2)c1)c1ccccc1	>57	-15.6%
COc1cc(NC(=O)Nc2cccc(C(C)=O)c2)cc(OC)c1OC	?	-13.6%
COc1ccc(OC)c(N(CC(=O)NCc2cccnc2)S(C)(=O)=O)c1	>57	6.0%
O=C(O)CC(NS(=O)(=O)c1ccc(Br)cc1)c1ccco1 (centres undefined)	>57	?
CCCCCCCCCCCCOCC1CO1 (centres undefined)	·	-3.3%
CCC(Sc1nc2ccccc2s1)C(=O)Nc1nnc(C)s1 (centres undefined)	·	1.3%

Whole records from above. Screens in order: SmPrx2 inh, Anthrax LT inh
COc1cc(NC(=O)Nc2cccc(C(C)=O)c2)cc(OC)c1OC is listed with ?, -13.6%
Cc1c(C(O)CN2CCN(Cc3ccc4c(c3)OCO4)CC2)c2ccccc2n1C (centres undefined) is listed with >57, ?
Cc1cc(C)nc(N2CCCC(C(=O)NC3CCCC3)C2)n1 (centres undefined) is listed with >57, -14.5%
Cc1nc2nc[nH]n2c(=O)c1CCC(C)C is listed with >57, -4.8%
O=C(O)CC(NS(=O)(=O)c1ccc(Br)cc1)c1ccco1 (centres undefined) is listed with >57, ?

Continuation.
SMILES	SmPrx2 inh	Anthrax LT inh
O=C(c1cc2nc(-c3ccco3)cc(C(F)(F)F)n2n1)N1CCc2ccccc2C1	·	-20.7%
CC(/C=C/C=C(C)/C=C/C(=O)O)=C\C=C\C=C(C)\C=C\C=C(C)\C=C\C(=O)O	·	-3.8%
COC(=O)/C=c1/sc2nc3ccccc3n2c1=O	>57	0.1%
COC(=O)[C@@H]1O[C@@H](c2c(OC)c(OC)c(C)c(OC)c2OC)[C@H](C)[C@@H](O)[C@@H]1C	·	5.6%[8 µM]
CCOC(=O)c1cc2occc2n1CC(=O)N1CCN(C(=O)c2ccco2)CC1	>57	-2.5%
Cc1ccc(OCc2nc(-c3ccccc3)no2)c(C)c1	·	?
COc1ccc(Nc2oc(COc3ccccc3F)nc2C#N)cc1	>57	?
Cc1cc(C)n2nc(SCC3COc4ccccc4O3)nc2n1 (centres undefined)	>57	-2.2%
CCCn1c2c(c(O)c(C(=O)Nc3ccc(C)cn3)c1=O)CCCC2	>57	-1.1%
O=C(NCc1ccc2c(c1)OCO2)C1CCC(CNS(=O)(=O)c2ccccc2)CC1 (centres undefined)	>57	2.0%
CC(NC(=O)c1ccc(F)cc1)C(c1cccs1)N1CCN(C)CC1 (centres undefined)	>57	-6.9%
O=C(NC1CCCCCC1)C1CCCN(S(=O)(=O)c2cnc[nH]2)C1 (centres undefined)	>57	-0.5%
CCCc1cc2c(=O)c(-c3ccccn3)coc2cc1OC	>57	-11.6%
CN(Cc1ccco1)c1nc(-c2ccc3c(c2)OCO3)nc2ccccc12	>57	?
COCCN1C(=O)C(O)=C(C(=O)c2ccco2)C1c1cccc(Oc2ccccc2)c1 (centres undefined)	·	?
COc1ccccc1-c1nccc(NCc2cccc(C)c2)n1	>57	-20.8%
C=CCSc1nnc(NC(=O)c2ccc(S(=O)(=O)NCC3CCCO3)cc2)s1 (centres undefined)	>57	0.5%
O=C1C2C3C=CC(CO)(O3)C2C(=O)N1c1ccc(-c2ccccc2)cc1 (centres undefined)	>57	?
COC(=O)c1cc(C(=O)OC)cc(N2C(=O)CN=C2Nc2nc(C)cc(C)n2)c1	>57	3.1%
O=C(c1ccc(NS(=O)(=O)c2ccccc2)cc1)N1CCCC1	>57	11.7%
COCCCNC(=O)c1ccc(N(C)S(=O)(=O)c2ccc(OC)cc2)cc1	>57	-7.5%
Cc1cc2c(c(N)n1)c(=O)oc1ccccc12	>57	-3.2%
O=C(Cc1c(C(=O)O)[nH]c2ccccc12)Nc1ccc2c(c1)OCO2	>57	17.1%
CSc1nc2c(c(=O)[nH]1)C(c1ccncc1)C(C(=O)OC(C)C)=C(C)N2 (centres undefined)	>57	-1.9%
COc1ccc(N/C=C2\CCOC2=O)cc1	·	-2.3%
Cn1cnnc1SCC(=O)NCc1cccc(C(F)(F)F)c1	>57	-12.7%
CC(=O)c1cccc(NC(=O)CCOc2ccccc2)c1	·	-11.1%
CCOC(=O)c1cnc(Nc2nc3ccccc3o2)nc1CSc1ncccn1	·	-3.4%
O=C1CCCC/C1=C\Nc1ccc(O)cc1	>57	-0.7%
CC(C)NC(=O)C1CC(=O)N(c2ccc(F)c(Cl)c2)C1 (centres undefined)	>57	-5.7%
O=C(NCCN1CCOCC1)c1nn2c(c1Cl)NC(c1ccccc1)CC2C(F)(F)F (centres undefined)	>57	5.6%
COc1ccccc1NC(=O)C1=C(C)Nc2nnnn2C1c1cccc(C)c1 (centres undefined)	>57	-18.0%
COc1ccc(Cl)cc1NC(=O)CSc1nnc(COc2ccccc2)n1C	>57	-1.6%
CC(C)(C)OC(=O)NCCc1nnc(SCC(N)=O)o1	>57	·
Cc1nc(NC(=O)c2oc3ccccc3c2C)sc1C(=O)N(C)C	>57	-7.1%
Cc1c(NC(=O)CSc2nc3ccccc3[nH]2)c(=O)n(-c2ccccc2)n1C	·	-25.0%
Cc1noc(C)c1COC(=O)CCc1nc2ccccc2c(=O)[nH]1	>57	-14.0%
O=C(Nc1ccc2c(c1)OCCO2)c1ccc(S(=O)(=O)N2CCCCC2)cc1	>57	-6.8%
CC(=O)c1cc(C(=O)Nc2ccccc2C(=O)O)oc1C	>57	-18.1%
CCN(CC)C(=O)CSc1nc2ccccc2c(=O)n1CCC(=O)NCc1ccc(F)cc1	>57	·
CCOc1ccc2nc(NCCNC(=O)C3CC3)c(C)cc2c1	>57	7.7%
